Source: PubChem BioAssay
VACV mCherry inh = inhibitors of vaccinia virus infection (mCherry reporter signal). Vaccinia virus mCherry reporter infection, fluorescence; about a quarter of the inactives have no number. Potency, µM (top dose mostly 36.5 µM), for inactives: at the top dose activity change, negative = inhibition, most hits filed as inhibitors. actives 0.63% (n = 310,000). AID 720579; active = well fitted inhibition curve with a large enough effect; inconclusive = small, poorly fitted or top-dose-only effect; inactive = no such curve, though single readings can be large or run the other way; tested in A549 cells; also: nearly all actives have a fitted effect of over 35% in size; inactives centre near -10
VACV Venus inh = vaccinia inhibition (Venus reporter) | Vaccinia virus Venus reporter expression, fluorescence | Potency, µM (series often up to 36.5 µM), without a hit: at the top dose activity change, negative = inhibition, hits mostly inhibitors | actives 0.46% (n = 330,000) | AID 720580; active means well fitted inhibition curve with a large enough effect; inconclusive means small, poorly fitted or top-dose-only effect; inactive means no such curve, though single readings can be large or run the other way; tested in A549 cells; also: nearly all actives have a fitted effect of over 30% in size; inactives centre near -10
Starred values were filed as active, the others as inactive; i = inactive; ? = inconclusive; . = not tested or not shown; & = joins results of further samples; [ ] = dose if it differs, or a comment. % is scaled to controls: 0 for no effect and ±100 for the full control effect; potency is read from the fitted curve at half-maximal effect.

SMILES	VACV mCherry inh	VACV Venus inh
COc1ccc([C@@H]2[C@@H]3C(=O)N(C(C)(C)C)C(=O)[C@@H]3[C@]3(Cc4ccccc4)C(=O)N(c4ccc(OC)cc4)C(=O)N23)cc1	-1%	-7%
S=C(NCc1ccco1)NC1CCCc2ccccc21 (centres undefined)	-13%	-5%
C=CCn1c(=O)c2ccccc2n2c(SCC(=O)c3ccccc3)nnc12	-14%	-10%
CCCC(c1nnnn1Cc1ccc(OC)cc1)N1CCN(c2ccccc2)CC1 (centres undefined)	-24%	-22%
CC(=O)Nc1ccc(S(=O)(=O)N2CCN(c3cc(C)nc4ncnn34)CC2)cc1	-11%	-4%
COc1ccc(C(=O)NCC2(N3CCCCC3)CCCCC2)cc1S(=O)(=O)N(C)C	-5%	-2%
COc1ccc(C2C3=C(CC(C)(C)CC3=O)Oc3ncn4nc(-c5ccccc5)nc4c32)cc1 (centres undefined)	-10%	-10%
COc1ccc(CNC(=O)c2cc(-c3ccc(Br)s3)nc3ccccc23)c(OC)c1	-11%	-10%
COc1cccc(C2=NOC(C(=O)Nc3cc(C)nn3-c3ccccc3)C2)c1OC (centres undefined)	14%	-6%
COc1ccc(C(=O)COC(=O)[C@H](C)Nc2ccc(C(F)(F)F)cc2[N+](=O)[O-])c(OC)c1	.	-6%
Cc1nc2ccccc2n1CCc1nc2c3ccccc3nc(SCc3ccc(F)cc3)n2n1	0%	2%
COc1ccc(-c2nc3sc(CCNC(=O)c4ccc(Br)o4)c(C)n3n2)cc1	-11%	-15%
Cc1c(Cl)cccc1NC(=O)CSc1ncnc2c1sc1ccccc12	-3%	-5%
CCCOc1ccc(NC(=O)CC2C(=O)N(C)C(=S)N2Cc2cccs2)cc1 (centres undefined)	-5%	-20%
O=C1CC(NS(=O)(=O)c2cccs2)CN1c1ccccc1 (centres undefined)	-13%	-11%
COc1ccc(C(=O)NNC(=S)NC(=O)c2cccnc2)cc1	1%	-8%
COc1ccc(C)cc1NC(=O)c1ccc2nc(Cc3ccccc3)oc2c1	-4%	14%
CCOc1ccc(-n2nnnc2SCC(=O)NC2CCCC2)cc1	i	-28%
O=C(NC1CCCCC1)C(c1ccncc1)N(Cc1ccc2c(c1)OCO2)C(=O)C(F)(F)F (centres undefined)	-13%	-7%
c1ccc(Oc2nnc(-c3cccs3)c3ccccc23)cc1	-6%	-14%
CC(=O)n1cc([C@@H]2C=C(C(=O)N3CCN(C)CC3)O[C@H](OCc3ccc(CO)cc3)C2)c2ccccc21	-28%	-4%
CCCCC(=O)Nc1cc2nn(-c3ccc(OCC)cc3)nc2cc1C	-13%	2%
CC(C)N1CCc2c(sc(NC(=O)Cc3ccccc3)c2C#N)C1	-27%	-19%
CCC(C)(C)C1CCc2[nH]nc(C(=O)NCc3ccc(Cl)cc3)c2C1 (centres undefined)	-4%	?
O=C(C1=C(O)C(=O)N(CCN2CCOCC2)C1c1cccc([N+](=O)[O-])c1)c1cc2ccccc2o1 (centres undefined)	-3%	-13%
CC(C)(C)n1nnnc1C(C1CC1)N1CCC2(CC1)C(=O)NCN2c1ccccc1 (centres undefined)	1%	-1%
Cc1cn([C@H]2C[C@H](O)[C@@H](CNC/C=C/c3ccccc3[N+](=O)[O-])O2)c(=O)[nH]c1=O	?	-17%
COc1ccccc1Nc1nc(C2(C)CCC(=O)O2)cs1 (centres undefined)	-19%	-6%
COC(=O)[C@]1(Cc2ccccc2)N[C@H](CN(C)C(=O)c2ccc(C)cc2)[C@@H]2C(=O)N(Cc3ccccc3)C(=O)[C@@H]21	-25%	?
CCOc1ccc(CN2CCN(C3CCSCC3)CC2CCO)cc1 (centres undefined)	-13%	7%
COCCNCCCCOc1ccc(C)cc1[N+](=O)[O-]	-8%	-5%
COc1ccc(Cc2noc(CN(C)Cc3cccc(-n4cccn4)c3)n2)cc1OC	-8%	3%
Cc1nnc(SCc2cccc([N+](=O)[O-])c2)o1	-17%	-17%
CC(C)c1ccc(C(=O)CSc2ncn[nH]2)cc1	-19%	-4%
Cc1ccc(S(=O)(=O)N(CC(=O)c2ccc(Cl)cc2)C(=O)N2CCN(C)CC2)cc1	-13%	2%
O=C(Nc1nnc(SCC(=O)N2CCOCC2)s1)c1ccccc1Cl	-15%	0%
CCC(C)C1C(C#N)=C(N)OC2=C1C(=O)CC(C)(C)C2 (centres undefined)	30%	-1%
O=C(CCNS(=O)(=O)c1ccc(Cl)cc1)N1CCCCCC1	i	-10%
COc1ccc(CC2(CO)CCN(Cc3cnn(-c4ccccc4)c3)CC2)cc1	-26%	-15%
c1ccc2nc3c(ccc4ccccc43)cc2c1	-9%	-12%
C/C(=N\NC(=O)Cc1c(Cl)cccc1Cl)c1cccnc1	-11%	3%
OCC(Cc1ccc2c(c1)OCO2)C(CO)Cc1ccc2c(c1)OCO2 (centres undefined)	25%	2%
CCOc1ccccc1NC(=O)CSc1nnc(Cc2cccn2C)n1-c1ccc(F)cc1	-5%	-5%
CCOc1ccc(CCNC(=O)C2CC(=O)N(CCc3ccc(OC)c(OC)c3)C2)cc1OCC (centres undefined)	-17%	-21%&-13%
COc1ccc(N2CCOCC2)c(NC(=O)c2ccc(Br)o2)c1	-10%	-20%
CCc1cc(C(=O)O)c(NC(=O)/C=C/c2ccc(OC)c(OC)c2)s1	i	-19%
Cc1nc2ccc(S(=O)(=O)N(C)CC(=O)Nc3ccccc3F)cc2s1	i	-11%
CC1C(=O)N(Cc2cn(CCC3OCCO3)nn2)CCS(=O)(=O)N1Cc1ccc(-c2ccc(Cl)c(Cl)c2)cc1 (centres undefined)	-20%	?
Cc1ccc(S(=O)(=O)NCC(=O)NNC(=O)c2ccc(Br)cc2)cc1C	-19%	-7%
O=S(=O)(NCc1ccc(F)cc1)c1ccc(Br)cc1Br	-15%&-4%	-20%&-17%
CCOC(=O)C1(CC)NC(c2ccco2)C2C(=O)N(CC)C(=O)C21 (centres undefined)	-21%	-16%
CCc1ccccc1NC(=O)c1ccc2nc(N3CCOCC3)sc2c1	-6%	-7%
CN(C)CCCN1C(=O)C(=O)/C(=C(/O)c2ccncc2)C1c1cccc(Br)c1 (centres undefined)	.	-15%
COc1ccc(CC(=O)OCC(=O)Nc2ccc3[nH]c(=O)[nH]c3c2)cc1	i	-8%
O=C(Cn1cccc1C(=O)c1ccccc1)NCc1cccs1	.	-8%
CCOc1ccc(/C=C/c2nc(C#N)c(N3CCCCC3)o2)cc1	-29%	-23%
CCOC(=O)c1nnn(-c2nonc2N)c1CN(CC)c1ccccc1	-21%	-6%
CCN(CC)S(=O)(=O)c1ccc2c(c1)N(CC(=O)Nc1ccc(C)cc1C)C(=O)C1CCCN21 (centres undefined)	-4%	-20%
S=C(NCc1cccnc1)c1ccccc1	-10%	-4%
O=C(NCc1ccc(F)cc1)C1CCN(S(=O)(=O)c2ccc3c(c2)OCCCO3)CC1	-14%	-8%
(continued)
SMILES	VACV mCherry inh	VACV Venus inh
CCC(C)c1ccccc1N1CC(C(=O)Nc2ccc(S(=O)(=O)N3CCOCC3)cc2)CC1=O (centres undefined)	?	-20%
CNCCc1ccccn1	-22%&-6%	-18%&0%
CCOc1cc(/C=N/NC(=O)CSc2nncn2C)ccc1OC(=O)c1ccc(Cl)cc1	-10%	?
COC(=O)c1sccc1NC(=O)CC1C(=O)NCCN1C(=O)c1c(F)cccc1Cl (centres undefined)	-12%	-11%
CC(C)c1nccn1S(=O)(=O)c1cccc([N+](=O)[O-])c1	i	-8%
CCOc1ccc(-c2cc3nc(C4CCN(C(=O)OC(C)(C)C)CC4)c(C(=O)Nc4ccc(C(=O)OC)cc4)cn3n2)cc1	-15%	-12%
CSc1ccc(CCCCCCOC(=O)C(C)(C)C)cc1	-10%	-4%
CC1CC2(C)C(CCC3C2CCC2(C)C(OP(=O)(N4CC4)N4CC4)CCC32)CC1=O (centres undefined)	i	-16%
O=C(Cc1cccs1)N[C@@H]1c2ccccc2CC[C@@H]1OCc1ccccc1	i	2%
COc1ccc2c(c1)OC[C@H]1[C@H]2N2C(=O)c3cc(Br)ccc3NC(=O)[C@@]2(C)[C@H]1c1ccccc1	i	-27%
O=C(COc1coc(CN2CCN(c3ccccc3)CC2)cc1=O)NC1CCCCC1	i	-15%
Cc1cc(C)c2c(c1)cc(C)c1nnc(SCC(=O)Nc3ccc(S(=O)(=O)N4CCCCC4)cc3)n12	-20%	?
CCN(c1ccccc1)S(=O)(=O)c1cccc(C(=O)NCc2ccncc2)c1	?	-12%
COc1ccc(/C(C)=N/N=C(N)N)c(O)c1	-5%	-4%
COc1cccc(NC(=O)c2ccc(S(=O)(=O)NCc3cccnc3)cc2)c1	-25%	-14%
Cc1ccnn1CC(=O)N1CCOc2c(cc(-c3csc4ccccc34)cc2OC2CCOC2)C1 (centres undefined)	-7%	-2%
CCCCCCn1c(CN2CCN(CCO)CC2)nc2c1c(=O)n(C)c(=O)n2C	i	-10%
CCc1ccc(-n2nc3cc(C)c(NC(=O)c4cc(Cl)ccc4OC)cc3n2)cc1	-10%	-5%
Cc1ccccc1NC(=S)N1CCCCCC1	-23%	0%
CCCSc1ncc(Cl)c(C(=O)N(Cc2cccc(Cl)c2)C2CCS(=O)(=O)C2)n1 (centres undefined)	-17%	-10%
Cc1ccc2occ(/C=N/NC(=O)[C@@H](N)Cc3ccccc3)c(=O)c2c1	i[7.34 µM]	-2%[7.34 µM]
COc1ccc(CCNC(=O)CSc2cc(=O)n(C)c3ccccc23)cc1OC	-12%	-3%
Cc1ccc(CS(=O)(=O)CCC(=O)NCCCN2CCCC2)cc1	i	4%
Cc1c(-c2ccc(OCCN3CCOCC3)cc2)c(=O)oc2ccc3ccccc3c12	-7%	-12%
CCOC(=O)c1ccc(NC(=O)c2cn(CCC#N)nc2-c2ccc3c(c2)OCCO3)cc1	i	-11%
CCC(=O)N1CCc2cc(S(=O)(=O)NC(CC(C)C)C(=O)Nc3cc(C)ccc3OC)ccc21 (centres undefined)	-9%	-9%
Cc1ccc(NC(=O)c2cccc(NC(=O)CC3SC(N4CCCCC4)=NC3=O)c2)nc1 (centres undefined)	-2%	-10%
O=C(CSc1ncnc2ccccc12)NCC(=O)c1ccccc1	-9%	-12%
CCOc1ccc(NC(=O)CN(C)C(=O)c2ccncc2)cc1OCC	-11%	-12%
CCCCn1c(N)c(N(CC(C)C)C(=O)CSc2ccc([N+](=O)[O-])cc2)c(=O)[nH]c1=O	i	-9%
COc1ccc(S(=O)(=O)N(C)C[C@@H]2Oc3cc(C#CC4CCCCC4)ccc3S(=O)(=O)N([C@@H](C)CO)C[C@@H]2C)cc1	-28%	?
Cc1ccc(Sc2nc(C)c([N+](=O)[O-])c(C)c2C#N)cc1	-14%	-10%
CCCNC(=O)C[C@@H]1C[C@@H]2c3cc(NS(=O)(=O)c4ccc(OC)cc4)ccc3O[C@@H]2[C@@H](CO)O1	i	-12%
NC(=O)c1ccsc1NC(=O)C1CCCCC1	-12%	-6%
O=C(NC1CCCCC1)Oc1cc2oc(=O)sc2cc1Br	-15%	-14%
C=CC(C)(O)CCCC(C)CCCC(C)CCCC(C)C (centres undefined)	i	-11%
COc1ccc(CN(C)CC(=O)Nc2ccccc2C(=O)NC2CC2)cc1OC	-11%	0%
Cc1ccc(NC(=O)c2nc[nH]c2C(=O)Nc2ccc(C)cc2)cc1	.	-7%
COc1nccnc1NS(=O)(=O)c1ccc(NCc2cc(Br)ccc2O)cc1	?	-22%
CCCOc1ccc(C(=O)c2ccccc2C(=O)O)cc1OCCC	-17%	-3%
CCN1CCN(c2ncc3c(n2)CCN(Cc2cccc(F)c2F)C3)CC1	-9%	-6%
O=S(=O)(Nc1ccc2ccccc2c1)N1CCCCC1	?	-5%
C=CCOc1ccc(C=CC(=O)c2c(O)c(OC)c(OC)c(OC)c2OC)cc1	?	?
O=C(Nc1ccccc1C(=O)N1CCN(c2cccc(Cl)c2)CC1)C1=CSCCO1	?	?
CC(C)(C)[C@H]1C=C(C(=O)N2CCOCC2)O[C@@H](OCCCCO)C1	-1%	-9%
COC(=O)CCC(=O)Nc1ccc(Br)cc1	.	-10%
Cc1cc(C)n(-c2ccc(S(=O)(=O)N3CCOCC3)cc2[N+](=O)[O-])n1	0%	6%
CCCCC(CC)COC(=O)c1ccc(N(C)C)cc1 (centres undefined)	-7%	-17%
